FXIa inh: blocks human coagulation factor XIa activity | P03951 | purified human FXIa, fluorogenic AMC substrate cleavage | inhibition, % at 10 µM | 0.3% of 33,000 active | AID 687;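 active = inhibition above 40% in the primary screen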;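 also: 0% = enzyme without compound and 100% = blank wells lacking enzyme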
Numbers without * were called inactive. These rows are one share of the data, and most or all hits are left out here.

FXIa inh	Compound
5	O=c1c2ccccc2nc(-c2ccoc2)n1CCc1ccccc1
3	Cc1ccc(-c2nc(N)n(C(=O)Cc3ccccc3)n2)cc1
2	Cn1c(=O)c2c(nc(Br)n2CCSc2ncccn2)n(C)c1=O
0	NC(=O)c1cc2nc(-c3ccco3)cc(C(F)(F)F)n2n1
-2	CCc1ccc(NC(=O)CN2C(=O)CSC2=O)cc1
7	COCCN1C(=O)C(=O)/C(=C(/O)c2ccc3c(c2)OCCO3)C1c1ccc(C(=O)OC)cc1 (stereo not drawn)
9	Nc1nc(-c2ccco2)nn1C(=O)c1ccc(Cl)cc1
19	COc1ccc(CC(=O)NC(C)c2nnc(SCC(=O)c3ccc(Br)cc3)n2C)cc1 (stereo not drawn)
-6	CNC(=O)c1[nH]cnc1C(=O)Nc1ccccc1C
-2	CCCC(=O)n1nc(-c2cccnc2)nc1N

5 compounds from above, arranged by formula weight, rising.
FXIa inh	Compound
-6	CNC(=O)c1[nH]cnc1C(=O)Nc1ccccc1C
9	Nc1nc(-c2ccco2)nn1C(=O)c1ccc(Cl)cc1
3	Cc1ccc(-c2nc(N)n(C(=O)Cc3ccccc3)n2)cc1
0	NC(=O)c1cc2nc(-c3ccco3)cc(C(F)(F)F)n2n1
2	Cn1c(=O)c2c(nc(Br)n2CCSc2ncccn2)n(C)c1=O

Later entries
FXIa inh	Compound
2	COC(=O)c1nc(NC(=O)c2ccc(Br)cc2)n[nH]1
-2	Nc1nc(-c2cccnc2)nn1C(=O)COc1ccccc1
0	CCCNC(=O)c1cc2nc(-c3ccccc3)cc(C(F)(F)F)n2n1
0	CN1CCc2c(sc3c2c(=O)n(-c2ccc(Cl)cc2)c2nncn32)C1
-1	COc1ccc(CC(=O)Nc2ccc(-c3noc(-c4cccc(OC)c4)n3)cc2)cc1
-1	O=C(CCSc1nc(-c2ccco2)cc(C(F)(F)F)n1)N1CCN(c2ccccc2)CC1
2	Cc1cnn(C(=S)NCc2ccco2)c1
-2	Cc1cccc(N2CCN(C(=O)c3ccc(NC(=O)C4CCCO4)cc3)CC2C)c1 (stereo not drawn)

Taken from the results shown, 3 compounds:
FXIa inh	Compound
2	COC(=O)c1nc(NC(=O)c2ccc(Br)cc2)n[nH]1
-2	Nc1nc(-c2cccnc2)nn1C(=O)COc1ccccc1
0	CCCNC(=O)c1cc2nc(-c3ccccc3)cc(C(F)(F)F)n2n1

High-throughput results: PubChem BioAssay, PCMD
